# DUX4 txn inh = blocks DUX4-driven transcriptional activation; 293T-iDUX4 ZSCAN4-Gaussia luciferase reporter, 24 h; stronger effect = lower value; activity change, negative = inhibition, % (test concentration not listed); 37,000 compounds, 0.8% hits; AID 1224904;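 active = -10% or lower and over 25 points stronger than a control reporter; inconclusive = -10% or lower with a smaller gap; inactive = above -10%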;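 also: 0% = median of neutral control wells and -100% = median of positive control wells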
# DUX4 txn inh difference = recorded beside DUX4 txn inh, whose call it bears; Gaussia minus Italica difference, %; measured here: selective DUX4 reporter inhibition;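 worked out from the two reporters; negative = selective loss of the DUX4 reporter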
# DUX4 txn inh control = recorded beside DUX4 txn inh, whose call it bears; activity change, negative = inhibition, %; measured here: Italica tet-on control reporter;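 0 = neutral control and -100 = positive control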
# An asterisk follows results filed as active; ? = inconclusive; nt = no result given. A portion of the library; rates above refer to the full screens.
1: C/C=C/c1ccc([C@H]2[C@@H](CO)N3C(=O)CN(Cc4ccc(C(=O)OC)cc4)C[C@@H]23)cc1
2: N#C[C@H]1N[C@@H](CO)[C@@H]1c1ccc(C#Cc2ccccc2F)cc1
3: COc1cccc(-c2ccc3c(c2)[C@@H]2[C@@H](CCN2C(=O)Nc2ccccc2OC)[C@@H](CO)N3C)c1
4: COc1ccc2c3c([nH]c2c1)[C@@H](CO)N(Cc1ccncc1)CC31CN(C(=O)Cc2ccncc2)C1
5: Cc1noc(C)c1NC(=O)N[C@@H]1C=C[C@@H](CC(=O)N2CCCCC2)O[C@H]1CO
6: CN1CCN(C(=O)c2cc3c(c(-c4cccc(Br)c4)n2)[C@H](CCO)N([S@@](=O)C(C)(C)C)C3)CC1
7: CN(C)C(=O)c1cccc(-c2ccc([C@@H]3[C@@H](CO)N4CCCCN(CC5CCOCC5)C[C@H]34)cc2)c1
8: Cc1noc(C)c1NC(=O)Nc1ccc2c(c1)C(=O)N([C@H](C)CO)C[C@@H](C)[C@@H](CN(C)C(=O)NC1CCCCC1)OCCCC[C@@H](C)O2

Compound	1	2	3	4	5	6	7	8
DUX4 txn inh	9.7	-3.0	?	12.0	14.6	-1.3	22.2	4.4
DUX4 txn inh difference	7.8	-6.1	nt	11.2	12.6	-0.6	23.3	2.7
DUX4 txn inh control	1.9	3.0	nt	0.7	2.0	-0.7	-1.1	1.8

# Numbers 2–4 from above:
2: N#C[C@H]1N[C@@H](CO)[C@@H]1c1ccc(C#Cc2ccccc2F)cc1
3: COc1cccc(-c2ccc3c(c2)[C@@H]2[C@@H](CCN2C(=O)Nc2ccccc2OC)[C@@H](CO)N3C)c1
4: COc1ccc2c3c([nH]c2c1)[C@@H](CO)N(Cc1ccncc1)CC31CN(C(=O)Cc2ccncc2)C1

Compound	2	3	4
DUX4 txn inh	-3.0	?	12.0
DUX4 txn inh difference	-6.1	nt	11.2
DUX4 txn inh control	3.0	nt	0.7

# Other entries.
9: COc1ccccc1CNC(=O)C[C@H]1CC[C@H]2[C@@H](COC[C@H](O)CN2C(=O)Nc2ccc(Cl)cc2)O1
10: C[C@@H]1CCCCO[C@@H](CN(C)C(=O)CCCN(C)C)[C@H](C)CN([C@H](C)CO)C(=O)c2cc(NC(=O)CCC(F)(F)F)ccc2O1
11: COc1ccc(S(=O)(=O)Nc2ccc3c(c2)C(=O)N([C@@H](C)CO)C[C@H](C)[C@@H](CN(C)Cc2ccncc2)O3)cc1
12: C[C@H](CO)N1C[C@H](C)[C@@H](CN(C)Cc2ccccc2C(F)(F)F)OCc2cnnn2CCCC1=O
13: O=C(C[C@@H]1CC[C@@H]2[C@H](COC[C@H](O)CN2S(=O)(=O)c2ccc(F)cc2)O1)NCCN1CCCCC1
14: CS(=O)(=O)Nc1ccc2c(c1)[C@@H]1C[C@H](CC(=O)NCc3ccccn3)O[C@@H](CO)[C@@H]1O2
15: CCCC(=O)N1CC2(C1)CN(Cc1cccnc1)[C@H](CO)c1[nH]c3cc(OC)ccc3c12
16: O=C(C[C@H]1CC[C@H]2[C@@H](COC[C@@H](O)CN2C(=O)c2ccccc2F)O1)NCc1ccc(Cl)cc1

Compound	9	10	11	12	13	14	15	16
DUX4 txn inh	0.0	0.3	3.9	?	6.4	-0.5	18.2	4.4
DUX4 txn inh difference	-3.4	1.8	2.8	nt	8.1	2.5	18.4	-5.9
DUX4 txn inh control	3.5	-1.5	1.1	nt	-1.7	-3.0	-0.2	10.4

17: O=C(C[C@@H]1CC[C@@H]2[C@H](COC[C@@H](O)CN2Cc2ccncc2)O1)NCC1CC1
18: Cc1noc(C)c1NC(=O)Nc1ccc2c(c1)C(=O)N([C@H](C)CO)C[C@H](C)[C@H](CN(C)S(=O)(=O)c1cccs1)OCCCC[C@@H](C)O2
19: CC(C)[C@@H](C)NC(=O)N(C)C[C@@H]1OCc2ccccc2-c2c(n(C)c3ccccc23)C(=O)N([C@H](C)CO)C[C@@H]1C
20: C[C@@H]1CN([C@H](C)CO)C(=O)c2cc(N(C)C)ccc2O[C@@H](C)CCCCO[C@H]1CN(C)S(=O)(=O)c1ccc(F)cc1
21: COCC#Cc1ccc([C@H]2[C@H]3CN(C(=O)c4cccnc4)CC(=O)N3[C@H]2CO)cc1
22: CC(=O)N(C)C[C@H]1[C@H](c2ccccc2)[C@@H](CO)N1C(=O)C1CCC1
23: CN1CCN(C(=O)C[C@H]2CC[C@@H]3[C@H](COC[C@H](O)CN3S(=O)(=O)c3cccc(Cl)c3)O2)CC1
24: O=C(Nc1ccccc1F)N1C[C@H]2[C@@H](c3ccccc31)[C@H](CO)N2C(=O)Cc1cccnc1

Compound	17	18	19	20	21	22	23	24
DUX4 txn inh	2.6	-0.6	?	4.4	16.5	-3.8	11.1	-0.8
DUX4 txn inh difference	0.7	-0.1	nt	0.7	-2.2	-2.1	-4.9	0.6
DUX4 txn inh control	1.9	-0.5	nt	3.7	18.7	-1.8	16.0	-1.4

25: C[C@H]1CN([C@@H](C)CO)C(=O)c2cc(C#Cc3ccncc3)cnc2O[C@H]1CN(C)S(=O)(=O)c1ccccc1F
26: COc1cccc(-c2ccc3c(c2)[C@@H]2[C@@H](CCN2S(=O)(=O)c2ccccc2OC)[C@H](CO)N3C)c1
27: C[C@H](CO)N1C[C@H](C)[C@@H](CN(C)Cc2ccc(Oc3ccccc3)cc2)Oc2c(NS(=O)(=O)c3cn(C)cn3)cccc2C1=O
28: C/C=C/c1cnc2c(c1)C(=O)N([C@@H](C)CO)C[C@@H](C)[C@@H](CN(C)C(=O)Nc1cccc(OC)c1)O2
29: CCC(=O)N1CC[C@@H]2[C@@H](CO)Nc3ccc(C#Cc4cccnc4)cc3[C@@H]21
30: CCC(=O)N1CC(=O)N2[C@H](C1)[C@H](c1ccc(C#CC3CCCCC3)cc1)[C@@H]2CO
31: O=C(C[C@H]1CC[C@H]2[C@@H](COC[C@@H](O)CN2C(=O)c2ccccc2)O1)NC1Cc2ccccc2C1
32: CN(C)CC(=O)N[C@H]1C=C[C@H](CC(=O)NCc2ccc(Cl)cc2)O[C@H]1CO

Compound	25	26	27	28	29	30	31	32
DUX4 txn inh	-2.7	?	0.0	2.3	22.9	?	8.3	9.5
DUX4 txn inh difference	2.6	nt	3.3	0.0	26.1	nt	0.0	5.8
DUX4 txn inh control	-5.4	nt	-3.3	2.3	-3.2	nt	8.2	3.7

# Results in DUX4 txn inh (3 entries from above):
no.	smiles	DUX4 txn inh
26	COc1cccc(-c2ccc3c(c2)[C@@H]2[C@@H](CCN2S(=O)(=O)c2ccccc2OC)[C@H](CO)N3C)c1	?
12	C[C@H](CO)N1C[C@H](C)[C@@H](CN(C)Cc2ccccc2C(F)(F)F)OCc2cnnn2CCCC1=O	?
3	COc1cccc(-c2ccc3c(c2)[C@@H]2[C@@H](CCN2C(=O)Nc2ccccc2OC)[C@@H](CO)N3C)c1	?

# (more compounds)
33: O=C(c1ccccc1F)N1C[C@@H]2[C@H](c3ccccc31)[C@H](CO)N2C(=O)Nc1ccccc1
34: COc1cccc(-c2ccc([C@@H]3[C@H](C#N)N(C(=O)c4ccccn4)[C@H]3CO)cc2)c1
35: COc1ccc(C(=O)N2C[C@H]3[C@@H](c4ccccc42)[C@@H](CO)N3Cc2ccccc2)cc1
36: CCNC(=O)[C@H]1[C@H](CO)[C@H]2Cn3c(ccc(-c4ccncc4)c3=O)[C@H]2N1Cc1ccc2c(c1)OCO2
37: C[C@@H]1CCCCO[C@H](CN(C)C(=O)CCCN(C)C)[C@@H](C)CN([C@@H](C)CO)C(=O)c2cc(NC(=O)CCC(F)(F)F)ccc2O1
38: C[C@H](O)C#Cc1ccc([C@@H]2[C@@H](CO)N3CCCCN(CC4CC4)C[C@@H]23)cc1
39: COCC(=O)N1C[C@H](C)[C@@H](OC)CN(C)C(=O)c2ccc(NC(=O)Nc3cccc(F)c3)cc2OC[C@H]1C
40: O=C(C[C@H]1CC[C@H]2[C@@H](COC[C@@H](O)CN2Cc2ccc(F)cc2)O1)NCc1ccccc1Cl

Compound	33	34	35	36	37	38	39	40
DUX4 txn inh	-1.1	1.4	-0.9	4.2	-0.2	10.5	-1.5	-9.4
DUX4 txn inh difference	0.0	-6.4	0.4	4.0	1.6	2.5	-10.3	-7.2
DUX4 txn inh control	-1.2	7.8	-1.4	0.2	-1.8	8.1	8.8	-2.2

41: CCC(=O)N1C[C@@H](C)[C@H](OC)CN(C)C(=O)c2ccc(NC(=O)C3CCOCC3)cc2OC[C@@H]1C
42: C[C@@H]1CN([C@@H](C)CO)C(=O)c2cc(-c3cccnc3)cnc2O[C@@H]1CN(C)C(=O)c1ccccc1F
43: COc1ccccc1-c1cccc(-c2nc(C(=O)N3CCN(C)CC3)cc3c2[C@@H](CCO)N([S@](=O)C(C)(C)C)C3)c1
44: C[C@H]1CN([C@@H](C)CO)C(=O)c2cccc(NS(=O)(=O)c3cn(C)cn3)c2O[C@@H]1CN(C)Cc1ccc(Oc2ccccc2)cc1
45: COC(=O)C[C@@H]1CC[C@@H]2[C@H](COC[C@@H](O)CN2S(=O)(=O)c2ccccc2C)O1
46: C/C=C/c1ccc([C@@H]2[C@@H](C#N)N(c3nc(CC)cs3)[C@@H]2CO)cc1
47: CCCN1[C@@H]2Cn3c(ccc(C4=CCCCC4)c3=O)[C@H]1[C@@H](C(=O)NCCc1ccncc1)[C@@H]2CO

Compound	41	42	43	44	45	46	47
DUX4 txn inh	-3.0	0.2	0.8	-1.3	-0.5	4.3	6.0
DUX4 txn inh difference	-8.8	-1.8	2.4	-0.1	-8.5	2.5	-1.5
DUX4 txn inh control	5.8	2.0	-1.6	-1.3	8.0	1.9	7.4

# Molecules from the list above that contain an NH in an aromatic ring:
4: COc1ccc2c3c([nH]c2c1)[C@@H](CO)N(Cc1ccncc1)CC31CN(C(=O)Cc2ccncc2)C1
15: CCCC(=O)N1CC2(C1)CN(Cc1cccnc1)[C@H](CO)c1[nH]c3cc(OC)ccc3c12

Compound	4	15
DUX4 txn inh	12.0	18.2
DUX4 txn inh difference	11.2	18.4
DUX4 txn inh control	0.7	-0.2
